Yeast UUG start – modulators of start codon recognition fidelity in yeast; S. cerevisiae UUG-firefly luciferase reporter, luminescence/redox ratio; activity score, % at 18.7 µM; 0.13% of 350,000 active; AID 602363;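 active means replicate mean at a twofold rise or more, about +100% in these data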;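 further: firefly luciferase made from a UUG start codon reports start codon fidelity; reporter light over untreated wells divided by growth signal over untreated wells; some hits fall short of that in this replicate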
Env fusion inh – blocks HIV Env-driven cell-cell fusion | inhibition, % at 12.3 µM | AID 651610 | 1.1% of 360,000 active | HeLa-JRFL Env/CEM21 cell fusion, luciferase;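 active means mean replicate inhibition score of at least 50 and every replicate individually at or above 50; inconclusive means only one of the two criteria met; inactive means mean below 50 and not all replicates reaching 50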;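 further: 0% = plate neutral controls and 100% = maraviroc near 300 nM; one replicate is shown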
* marks the source's active call; other numbers are inactive results; ? = inconclusive; [ ] = dose if it differs, or a comment. Only part of the results is shown; the hit share may differ from the screen's.

Below each SMILES: Env fusion inh, Yeast UUG start
> Cc1ccc(S(=O)(=O)N(C)C[C@H]2Oc3cc(C4=CCCC4)ccc3S(=O)(=O)N([C@@H](C)CO)C[C@H]2C)cc1
  -2[16.7 µM], -7
> C[C@H]1CN([C@@H](C)CO)C(=O)c2cccc(NS(=O)(=O)c3ccccc3)c2O[C@H]1CN(C)Cc1ccc(Oc2ccccc2)cc1
  3[16.7 µM], -1
> CC(=O)N(C)C[C@H]1Oc2ncc(C#Cc3ccncc3)cc2C(=O)N([C@H](C)CO)C[C@@H]1C
  -6[16.7 µM], 8
> CCC(=O)N1C[C@H](C)[C@@H](OC)CN(C)C(=O)c2ccc(NC(=O)C3CCCCC3)cc2OC[C@H]1C
  -11[16.7 µM], 5
> C[C@@H]1CN([C@@H](C)CO)C(=O)c2cc(C#CC(C)(C)O)cnc2O[C@@H]1CN(C)C(=O)C1CCCCC1
  4[16.7 µM], -3
> CO[C@@H]1CN(C)C(=O)c2ccc(NS(C)(=O)=O)cc2OC[C@@H](C)N(C(=O)C2CCCCC2)C[C@H]1C
  66*[16.7 µM], 9
> COc1ccccc1-c1ccc2c(c1)O[C@H](CN(C)C(=O)c1ccccc1)[C@H](C)CN([C@@H](C)CO)S2(=O)=O
  -49[16.7 µM], 7
> Cc1noc(C)c1NC(=O)N[C@H]1C=C[C@@H](CC(=O)NCc2ccc(Cl)c(Cl)c2)O[C@@H]1CO
  -3[16.7 µM], -15
> C[C@@H]1CN([C@@H](C)CO)C(=O)c2cc(NS(=O)(=O)c3ccc(F)cc3)ccc2O[C@H]1CN(C)C(=O)Nc1ccc2c(c1)OCO2
  -20[16.7 µM], -1
> C[C@@H]1CCCCO[C@H](CN(C)S(C)(=O)=O)[C@@H](C)CN([C@H](C)CO)C(=O)c2cc(NC(=O)Nc3cccc4ccccc34)ccc2O1
  2[16.7 µM], -9
> C[C@H]1CN([C@@H](C)CO)C(=O)c2cc(NS(=O)(=O)c3cn(C)cn3)ccc2O[C@H]1CN(C)CC1CCCCC1
  -13[16.7 µM], -2
> C[C@@H]1CN([C@@H](C)CO)S(=O)(=O)c2ccc(C#CC(C)(C)O)cc2O[C@H]1CN(C)Cc1ccncc1
  -10[16.7 µM], -10
> O=C(C[C@@H]1C=C[C@@H](NC(=O)Nc2ccc3c(c2)OCO3)[C@H](CO)O1)NCCCN1CCOCC1
  5[16.7 µM], -5
> O=C(C[C@@H]1C=C[C@@H](NS(=O)(=O)c2ccccc2)[C@@H](CO)O1)NCc1ccccc1F
  -24[16.7 µM], -7
> C[C@@H]1CCCCO[C@@H](CN(C)S(=O)(=O)c2cn(C)cn2)[C@H](C)CN([C@H](C)CO)C(=O)c2cc(NC(=O)C3CCCCC3)ccc2O1
  26[16.7 µM], 2
> COc1ccccc1S(=O)(=O)N[C@H]1CC[C@H](CC(=O)N2CCN(C)CC2)O[C@@H]1CO
  15[16.7 µM], 17
> C[C@H](CO)N1C[C@H](C)[C@@H](CN(C)C(=O)Cc2ccccn2)Oc2ncc(-c3ccccc3)cc2C1=O
  12[16.7 µM], -4
> C[C@H](CO)N1C[C@H](C)[C@@H](CN(C)Cc2ccccc2)Oc2ncc(C#Cc3cccnc3)cc2C1=O
  -8[16.7 µM], -5
> O=C(C[C@@H]1C[C@@H]2c3cc(NC(=O)C4CCOCC4)ccc3O[C@@H]2[C@H](CO)O1)NCc1cccc(F)c1
  32[16.7 µM], 10
> C[C@H]1CN([C@@H](C)CO)C(=O)c2cc(NC(=O)NC3CCCCC3)ccc2O[C@@H]1CN(C)C(=O)Nc1ccc2c(c1)OCO2
  4[16.7 µM], 1
> COC(=O)C[C@H]1CC[C@H](NC(=O)Nc2ccc(C(F)(F)F)cc2)[C@H](CO)O1
  6[16.7 µM], -12
> COc1ccc(NC(=O)N[C@@H]2CC[C@H](CCNC(=O)c3cc(Cl)cc(Cl)c3)O[C@@H]2CO)cc1
  4[16.7 µM], 2
> CC(C)NC(=O)N(C)C[C@@H]1Oc2cc(C#Cc3cccc(F)c3)ccc2S(=O)(=O)N([C@H](C)CO)C[C@H]1C
  28[16.7 µM], 3
> C[C@H](CO)N1C[C@H](C)[C@@H](CN(C)C)Oc2ccc(NC(=O)C3CCCCC3)cc2C1=O
  15[16.7 µM], -9
> Cc1ccc(-c2cnc3c(c2)C(=O)N([C@H](C)CO)C[C@@H](C)[C@H](CN(C)C(=O)c2ccncc2)O3)cc1
  -8[16.7 µM], -4
> COc1ccc(NC(=O)N(C)C[C@@H]2OCCCC[C@H](C)Oc3ccc(N(C)C)cc3C(=O)N([C@H](C)CO)C[C@@H]2C)cc1
  -8[16.7 µM], 7
> CNC[C@@H]1Oc2ccc(NC(=O)C3CCCCC3)cc2CC(=O)N([C@H](C)CO)C[C@@H]1C
  -1[16.7 µM], -8
> C[C@@H]1CN([C@H](C)CO)S(=O)(=O)c2ccc(/C=C/c3ccccc3)cc2O[C@@H]1CN(C)Cc1cncnc1
  -13[16.7 µM], -4
> CNC(=O)C[C@@H]1CC[C@H]2[C@H](COc3ccc(NC(=O)Nc4cc(C)cc(C)c4)cc3C(=O)N2C)O1
  -2[16.7 µM], 0
> CN1C(=O)c2cc(NC(=O)c3cc(F)cc(F)c3)ccc2OC[C@H]2O[C@H](CC(=O)O)CC[C@@H]21
  -9[16.7 µM], 4
> C[C@H]1CCCCO[C@@H](CN(C)C(=O)NC2CCCCC2)[C@@H](C)CN([C@@H](C)CO)C(=O)c2cc(NC(=O)Nc3ccc(F)cc3)ccc2O1
  -3[16.7 µM], 13
> O=C(Nc1ccc(F)cc1)N[C@@H]1C=C[C@H](CC(=O)N2CCOCC2)O[C@@H]1CO
  8[16.7 µM], -21
> CCCC#Cc1ccc2c(c1)O[C@H](CN(C)Cc1ccccn1)[C@@H](C)CN([C@@H](C)CO)S2(=O)=O
  ?, -11
> CCCC#Cc1ccc2c(c1)O[C@H](CN(C)Cc1ccccc1)[C@@H](C)CN([C@H](C)CO)S2(=O)=O
  14[16.7 µM], -1
> C[C@H](CO)N1C[C@H](C)[C@@H](CN(C)C(=O)c2ccncc2)OCCCC[C@H](C)Oc2ccc(NS(=O)(=O)c3cccs3)cc2C1=O
  -21[16.7 µM], 23
> O=C(C[C@@H]1C[C@H]2c3cc(NC(=O)NC4CCCCC4)ccc3O[C@H]2[C@H](CO)O1)NCc1ccncc1
  6[16.7 µM], 1
> Cc1noc(C)c1NC(=O)N(C)C[C@@H]1Oc2ncc(C#CC3CCCCC3)cc2C(=O)N([C@H](C)CO)C[C@@H]1C
  19[16.7 µM], -4
> COc1ccccc1C(=O)Nc1ccc2c(c1)OC[C@H](C)NC[C@@H](C)[C@H](OC)CN(C)C2=O
  -10[16.7 µM], 1
> C[C@@H]1CN([C@@H](C)CO)C(=O)c2cc(NS(=O)(=O)c3cccs3)ccc2O[C@H]1CN(C)Cc1ccc(C(=O)O)cc1
  -10[16.7 µM], -10
> COc1ccc(CN(C)C[C@@H]2OCCCC[C@@H](C)Oc3ccc(NC(=O)CCCN(C)C)cc3C(=O)N([C@H](C)CO)C[C@@H]2C)cc1
  11[16.7 µM], -1
> CN(C)C(=O)C[C@@H]1CC[C@H](NC(=O)NC2CCCCC2)[C@H](CO)O1
  3[16.7 µM], -13
> C[C@H]1CN([C@@H](C)CO)C(=O)Cc2cc(NC(=O)CCC(F)(F)F)ccc2O[C@H]1CN(C)S(=O)(=O)c1cccs1
  -5[16.7 µM], -10
> COc1ccc(NC(=O)N(C)C[C@@H]2Oc3ccc(NS(=O)(=O)c4cccs4)cc3CC(=O)N([C@@H](C)CO)C[C@@H]2C)cc1
  15[16.7 µM], -6
> COc1ccc(-c2cnc3c(c2)C(=O)N([C@@H](C)CO)C[C@@H](C)[C@@H](CN(C)Cc2ccccn2)O3)cc1
  12[16.7 µM], -25
> C[C@@H]1CCCCO[C@H](CN(C)S(C)(=O)=O)[C@@H](C)CN([C@H](C)CO)C(=O)c2cc(NS(C)(=O)=O)ccc2O1
  7[16.7 µM], -5
> C[C@H]1CN([C@@H](C)CO)C(=O)c2cc(C#Cc3ccncc3)cnc2O[C@@H]1CN(C)CC1CCCCC1
  -20[16.7 µM], -8
> C[C@@H]1CN([C@H](C)CO)C(=O)c2cc(NC(=O)Nc3cccc4ccccc34)ccc2O[C@@H](C)CCCCO[C@@H]1CN(C)S(=O)(=O)c1ccc(Cl)cc1
  0[16.7 µM], 15
> C[C@@H]1CN([C@@H](C)CO)C(=O)Cc2cc(NS(=O)(=O)c3ccc(F)cc3)ccc2O[C@@H]1CN(C)Cc1ccc2c(c1)OCO2
  3[16.7 µM], -3
> CO[C@@H]1CN(C)C(=O)c2ccc(NC(=O)Nc3ccccc3F)cc2OC[C@@H](C)N(C(C)=O)C[C@@H]1C
  -8[16.7 µM], 7
> O=C(C[C@H]1C[C@@H]2c3cc(NC(=O)Nc4ccc(C(F)(F)F)cc4)ccc3O[C@@H]2[C@H](CO)O1)NCc1ccc2c(c1)OCO2
  0[16.7 µM], -14

A second format for 4 compounds above:
COc1ccccc1-c1ccc2c(c1)O[C@H](CN(C)C(=O)c1ccccc1)[C@H](C)CN([C@@H](C)CO)S2(=O)=O
  Env fusion inh = -49[16.7 µM]	Yeast UUG start = 7

Cc1ccc(S(=O)(=O)N(C)C[C@H]2Oc3cc(C4=CCCC4)ccc3S(=O)(=O)N([C@@H](C)CO)C[C@H]2C)cc1
  Env fusion inh = -2[16.7 µM]	Yeast UUG start = -7

COc1ccccc1S(=O)(=O)N[C@H]1CC[C@H](CC(=O)N2CCN(C)CC2)O[C@@H]1CO
  Env fusion inh = 15[16.7 µM]	Yeast UUG start = 17

C[C@H](CO)N1C[C@H](C)[C@@H](CN(C)C)Oc2ccc(NC(=O)C3CCCCC3)cc2C1=O
  Env fusion inh = 15[16.7 µM]	Yeast UUG start = -9

(further entries)
Below each SMILES: Env fusion inh, Yeast UUG start
> O=C(NCC[C@@H]1CC[C@H](NS(=O)(=O)c2ccc(Cl)cc2)[C@H](CO)O1)c1ccccc1F
  6[16.7 µM], 2
> C[C@H]1CN([C@@H](C)CO)S(=O)(=O)c2ccc(C#CC3CC3)cc2O[C@@H]1CN(C)C(=O)c1ccccc1
  2[16.7 µM], 3
> O=C(C[C@H]1C[C@@H]2c3cc(NC(=O)c4cccnc4)ccc3O[C@@H]2[C@@H](CO)O1)NCc1cccnc1
  7[16.7 µM], -15
> COc1ccc(S(=O)(=O)N(C)C[C@H]2Oc3ccc(NC(=O)Nc4ccc(F)cc4)cc3CC(=O)N([C@@H](C)CO)C[C@@H]2C)cc1
  -11[16.7 µM], 3
> C[C@H]1CN([C@@H](C)CO)C(=O)c2cc(C#CCN(C)C)cnc2O[C@H]1CN(C)C(=O)c1cccnc1
  -10[16.7 µM], -13
> CN1CCN(C(=O)C[C@@H]2CC[C@@H](NC(=O)Cc3ccccn3)[C@H](CO)O2)CC1
  1[16.7 µM], -11
> O=C(C[C@H]1CC[C@@H](NC(=O)Nc2ccc(C(F)(F)F)cc2)[C@@H](CO)O1)NCc1ccccn1
  1[16.7 µM], -10
> C[C@@H]1CCCCO[C@@H](CN(C)Cc2ccc(Cl)c(Cl)c2)[C@@H](C)CN([C@@H](C)CO)C(=O)c2cc(NC(=O)NC3CCCCC3)ccc2O1
  4[16.7 µM], 5
> Cc1noc(C)c1S(=O)(=O)N(C)C[C@@H]1OCCCC[C@H](C)Oc2ccc(NS(=O)(=O)c3ccccc3)cc2C(=O)N([C@H](C)CO)C[C@@H]1C
  -44[16.7 µM], -9
> COc1ccc(S(=O)(=O)N(C)C[C@@H]2Oc3c(NS(C)(=O)=O)cccc3C(=O)N([C@@H](C)CO)C[C@@H]2C)cc1
  9[16.7 µM], -7
> C[C@H]1CN([C@@H](C)CO)S(=O)(=O)c2ccc(C3=CCCCC3)cc2O[C@@H]1CN(C)C(=O)C1CCCCC1
  22[16.7 µM], 10
> C[C@H](CO)N1C[C@H](C)[C@@H](CN(C)CC2CCCCC2)Oc2ccc(NC(=O)CCCN(C)C)cc2C1=O
  11[16.7 µM], -14
> O=C(C[C@@H]1C[C@H]2c3cc(NC(=O)c4ccc5c(c4)OCO5)ccc3O[C@H]2[C@H](CO)O1)NC1CCCC1
  15[16.7 µM], 37
> Cc1ccc(S(=O)(=O)Nc2cccc3c2O[C@H](CN(C)C)[C@@H](C)CN([C@@H](C)CO)C3=O)cc1
  -3[16.7 µM], -3
> CCC(=O)Nc1ccc2c(c1)OC[C@H](C)N(C(=O)c1cnccn1)C[C@@H](C)[C@H](OC)CN(C)C2=O
  6[16.7 µM], -7
> CC(C)CC#Cc1cnc2c(c1)C(=O)N([C@@H](C)CO)C[C@H](C)[C@@H](CN(C)S(=O)(=O)c1ccccc1)O2
  -12[16.7 µM], 4
> COc1ccc(NC(=O)Nc2cccc3c2O[C@@H](CN(C)Cc2ccc(Oc4ccccc4)cc2)[C@@H](C)CN([C@@H](C)CO)C3=O)cc1
  -16[16.7 µM], 14
> C[C@@H]1CN([C@@H](C)CO)C(=O)c2cc(NC(=O)Nc3ccc(F)cc3)ccc2O[C@@H]1CN(C)S(C)(=O)=O
  4[16.7 µM], 11
> C[C@H]1CCCCO[C@@H](CN(C)C(=O)c2ccccc2)[C@@H](C)CN([C@@H](C)CO)C(=O)c2cc(NS(=O)(=O)c3ccc(Cl)cc3)ccc2O1
  -14[16.7 µM], 7
> CCC(=O)Nc1ccc2c(c1)OC[C@@H](C)N(CC1CCOCC1)C[C@@H](C)[C@@H](OC)CN(C)C2=O
  8[16.7 µM], 9

Screening data: PubChem BioAssay, Broad Institute
